High-throughput results deposited in PubChem by several laboratories.
Rce1 inh: yeast Rce1p protease inhibitors, primary screen, biochemical, fluorescence, cell-free homogeneous; CAAX prenyl protease 2 (Saccharomyces cerevisiae (strain ATCC 204508 / S288c)), Q03530; yeast membranes, quenched prenylated peptide cleavage fluorescence; calls only; actives 0.27% (n = 290,000); AID 2563, 2010;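 active = fall in fluorescence gain of 50% or more versus controls, with final raw signal at or below 3038400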;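 also: plate controls were neutral control wells for no effect and wells lacking membranes for full effect; tested at 10 µM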
Target sequence (Q03530 whole entry, looked up): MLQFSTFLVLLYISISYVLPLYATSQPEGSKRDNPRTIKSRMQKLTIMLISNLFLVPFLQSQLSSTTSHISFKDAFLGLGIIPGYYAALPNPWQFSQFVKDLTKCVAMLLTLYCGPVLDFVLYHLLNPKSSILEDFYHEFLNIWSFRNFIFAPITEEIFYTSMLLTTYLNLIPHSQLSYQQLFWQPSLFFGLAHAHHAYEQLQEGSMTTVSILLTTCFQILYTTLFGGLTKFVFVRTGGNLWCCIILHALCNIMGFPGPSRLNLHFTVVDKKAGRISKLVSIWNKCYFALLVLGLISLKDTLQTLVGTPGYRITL
UUG fidelity: modulators of yeast start codon fidelity, primary screen, whole organism, S. cerevisiae, single point, plate reader; activity score, % at 18.7 µM; actives 0.13% (n = 350,000); S. cerevisiae UUG-firefly luciferase reporter, luminescence/redox ratio;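 active = replicate mean at a twofold rise or more, about +100% in these data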;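 also: firefly luciferase made from a UUG start codon reports start codon fidelity; reporter light over untreated wells divided by growth signal over untreated wells; some hits fall short of that in this replicate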
MT1-MMP act inh: blockers of MT1-MMP proenzyme processing, primary screen, HT1080 RFP-PRO-GFP cells, GFP/RFP fluorescence; Matrix metalloproteinase-14 (Homo sapiens), P50281; GFP/RFP ratio fluorescence, overnight; percent of plate control window, DMSO zero; GFP/RFP ratio change, % at 20 µM; actives 0.061% (n = 360,000); AID 651647, 2012;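 active = GFP/RFP ratio change of at least 30% with cell ATP level not reduced by more than half and red fluorescence within 50% of control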; also: strong numbers were not always called active
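Assay system: HT1080 cells carrying an RFP-PRO-GFP reporter | Dosing: Single dose of 20 µM compound, 1% DMSO final | Incubation: Cells overnight before dosing, compound overnight, 37 °C, 5% CO2 | Evaluation: GFP/RFP fluorescence ratio | Control set: DMSO and RFP-L50D-GFP cell wells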
CSC inhib: cancer stem cell viability inhibitors, primary screen, luminescence; cancer stem cell-like cells viability; inhibition, % at 7.5 µM; actives 1.1% (n = 300,000); AID 2717, 2010;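 active = mean at 75% or more and at least half the replicates too; tested in HMLE shEcad cells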;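 also: 0% = median of negative and 100% = median of positive control wells; the first replicate is given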
eIF4H inh: human eIF4H binding inhibitors, primary screen, translation initiation inhibitor project, biochemical, uHTS, fluorescence polarization; Eukaryotic translation initiation factor 4H (Homo sapiens), Q15056; eIF4H fluorescence polarization binding assay; inhibition, % at 35 µM; actives 0.94% (n = 290,000);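 active = 50% or more with normal probe brightness, or confirmed in later tests; about a fifth of its hits are not listed in these tables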;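 also: calls also rest on retests at 20 µM and on dose response follow-up; 0% = protein and probe with vehicle and 100% = probe without protein; strong numbers were not always called active; many hits fall short of the cut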
HIV Env fusion: inhibitors of HIV-1 Env-driven cell-cell fusion, primary screen, HeLa-JRFL effector, CEM21 target cells, luciferase | inhibition, % at 12.3 µM | actives 1.1% (n = 360,000);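 active = mean replicate inhibition score of at least 50 and every replicate individually at or above 50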;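 also: 0% = plate neutral controls and 100% = maraviroc near 300 nM; one replicate is shown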
PABP FP inh: PABP poly(A) RNA binding inhibitors, primary screen, biochemical, fluorescence polarization, uHTS | AID 2014, 2009 | actives 1% (n = 290,000) | inhibition, % at 35 µM;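 active = 50% or more with normal probe brightness, or confirmed in later tests; about a fifth of its hits are not listed in these tables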;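 also: calls also rest on retests at 20 µM and on dose response follow-up; controls were probe without protein and protein plus probe with vehicle; some compounds called inactive have numbers as strong as hits; many hits fall short of the cut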
eIF4H inh retest: recorded beside eIF4H inh, whose call it bears; inhibition, %; compound at 20 µM; confirmation average;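 mean of two retest wells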
PABP FP inh retest: recorded beside PABP FP inh, whose call it bears; inhibition, %; compound at 20 µM; confirmation repeats;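 mean of two retest wells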
MT1-MMP act inh RFP: also measured in MT1-MMP act inh; calls as there; RFP signal change, %; measured here: RFP expression control read;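 0 = vehicle wells; hits needed this value within 50% of zero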
* hit, by the source's call; i = inactive; . = no result given; & = joins results of further samples; [ ] = remark or other dose.

SMILES	Rce1 inh	UUG fidelity	MT1-MMP act inh	MT1-MMP act inh RFP	CSC inhib	eIF4H inh	HIV Env fusion	PABP FP inh	others
COc1ccc(Cl)cc1-n1c(=S)sc2c(=O)[nH]c(SCC(=O)C(C)(C)C)nc21	i	-4	4	-9	.	7	0	-3
CCOC(=O)CC1C(=O)NC2CCCCC2N1C(=O)Nc1ccc(Cl)cc1 (stereo unspecified)	i	-10	-4	-1	-3	2	.	7
CC(C)CNC(=O)CSc1nnc(-c2cccc(S(=O)(=O)N3CCCCC3)c2)o1	i	-11	3	5	-23	-10	-17	4
CCN(C(=O)COC(=O)c1cc([N+](=O)[O-])ccc1N1CCOCC1)C1CCCCC1	i	-8	0	1	17	.	2	.
CN(C)S(=O)(=O)n1cnc([C@@H]2[C@@H]3C(=O)OC[C@@H]3C[C@]23N=CN(Cc2ccccc2)C3=O)c1	.	-9	-5	0	-1	.	-67	.
Cc1cccc(CCNC(=O)COc2cc(=O)n(C)c3ccccc23)c1	i	.	0	-1	0	-8	-1	0
Cc1ccc(S(=O)(=O)N(C)C[C@H]2OCCCC[C@@H](C)Oc3ccc(NC(=O)Cc4ccccc4)cc3C(=O)N([C@H](C)CO)C[C@@H]2C)cc1	.	-12&-9	1	-3	.	.	26[16.7 µM]	.
CCN(c1nc(C)cc(OC)n1)S(=O)(=O)c1ccccc1	i	-2	-7	-2	-4	-12	-57	-4
COC(=O)c1ccc(NC(=O)CCc2nnc3ccc(N4CCC5(CC4)OCCO5)nn23)cc1	i	-18	3	0	-11	3	-7	0
COc1ccc(C(C(=O)NC2CCCC2)N(Cc2ccccc2)C(=O)c2snc(C(N)=O)c2N)cc1OC (stereo unspecified)	i	-1	3	-2	-4	-1	25	7
Cc1ccc(C(=O)N/N=C\c2ccc(OC(=O)c3cccc(F)c3)cc2)cn1	i	-24	-4	1	7	4	5	1
CCOC(=O)N1CCC(N(CCN(C)C)C(=S)Nc2ccc(Oc3ccccc3)cc2)CC1	i	-33	-3	0	.	-2	9	-4
CC(Sc1ccc(S(=O)(=O)N2CCOCC2)cn1)C(=O)Nc1ccc(Cl)cc1Cl (stereo unspecified)	.	0	-2	-6	.	.	12	.
CC(Sc1ccccc1)C(=O)N1CCN(S(=O)(=O)c2ccccc2C(F)(F)F)CC1 (stereo unspecified)	i	-9	-4	-1	-14	-10	35	-10
COC(=O)c1cn(C(=O)c2cc(OC)cc(OC)c2)c2ccccc12	i	-9	0	2	27	7	-48	4
O=C(N/N=C\c1cccnc1)c1ccc(Cl)cc1Cl	i	-15	0	-1	1	8	.	7
CC(=O)Nc1ccc(Nc2ncnc(N)c2[N+](=O)[O-])cc1	i	.	-9	-5	-6	8	26	3
Cc1cccc(CCNC(=O)C2CCN(S(=O)(=O)c3c(C)nn(C)c3C)CC2)c1	i	-11	5	0	-3	0	.	0
O=C(O)c1cnc(-c2ccccc2)nc1Sc1ccccc1	i	-15	1	-1	0	-5	3	-10
CN(C)CCC1Sc2ccccc2Oc2ccccc21 (stereo unspecified)	i	-5	-23	-4	-20	-2	.	-12
CCc1nnc(NC(=O)CSc2nnc(Cc3ccccc3)n2-c2ccccc2)s1	i	-11	-2	4	-1	-1	-5	3
Cc1ccccc1CC(=O)NCCN1CCOCC1	i	-17	-2	-6	-3	2	-12	-11
Cn1cc(CNC(=O)C2CCCCC2)cn1	i	9	4	-2	16	-5	.	20
CCOC(=O)c1nn(-c2ccc3ccccc3c2)cc1O	i	-13	-2	0	.	0	-50	19
CCOc1cc(C(=O)NCC(C)CN(C)C)cc(OCC)c1OCC (stereo unspecified)	i	-17	0	0	-10	-1	.	4
Fc1ccc2[nH]c3c(Cl)ncnc3c2c1	i	.	-2	1	-11	-9	-27	3
Cn1c(COc2ccc(Cl)cc2)nnc1SCC(=O)NC1CCCC1	i	-8	-3	-2	.	-2	-6	-6
CCOc1ccc(NC(=S)N(CCCN2CCCC2)Cc2cccn2Cc2ccc(Cl)cc2)cc1	i	-33	1	1	.	-9	19	1
Cc1ccc(S(=O)(=O)N2CCC(C(=O)NC3CC(C)(C)NC(C)(C)C3)CC2)cc1	i	-11	-2	3	3	3	-3	7
COC(=O)c1c(C)oc(C)c1S(=O)(=O)NCc1ccc(OC)cc1	i	2	-1	0	10	5	21	8
Cc1cc(-c2ccccc2)nc(N2CCC(C(=O)NC34CC5CC(CC(C5)C3)C4)CC2)n1	i	-12	-7	0	9	-9	-8	-9
CCCc1nnc(SCC(=O)O)n1/N=C/c1ccc2c(c1)OCO2	i	.	1	0	0	-7	.	-3
COCCSc1nnc(NC(=O)c2cc(OC)c(OC)cc2[N+](=O)[O-])s1	i	.	1	1	2	-5	-2	3
COc1ccccc1CNC(=O)N1CCN(c2ccccc2Cl)CC1	i	-9	-1	-2	3	-4	2	5
O=C(COC(=O)CCc1nc2ccccc2s1)Nc1nc(-c2ccccc2)cs1	i	.	4	4	-8	-2	-11	-6
CCOC(=O)c1ccc(NC(=O)Nc2ccn(C)n2)cc1	i	-3	21	4	6	-2	.	0
CC#CCN(CC#CC)S(=O)(=O)c1ccc(S(=O)(=O)N2CCOCC2)cc1	i	-7	5	3	26	-8	-311	3
CCC(=O)N(CC)Cc1cc(=O)[nH]c2ccccc12	i	7	0	4	-14	5	-101	118	eIF4H inh retest=48;PABP FP inh retest=2
Cc1cccc(N(C(=O)CCC(=O)Nc2cccnc2)C(C(=O)NC2CCCC2)c2ccncc2)c1 (stereo unspecified)	i	-6	-2	2	.	5	.	38
CCN1CCN(C(c2ccc(OC)cc2)c2nnnn2Cc2ccc3c(c2)OCO3)CC1 (stereo unspecified)	i	.	2	2	-10	-4	-4	-7
CN(c1ccccc1)S(=O)(=O)c1cccc(NC(=O)CSc2ncn[nH]2)c1	i	.	8	-12	1	6	38	6
O=C(Nc1ccc(N2CCOCC2)c(S(=O)(=O)Nc2cc(Cl)ccc2Cl)c1)c1cccnc1	i	12	0	-4	3	7	-8	3
Cc1cc(SCC(=O)Nc2ccccc2)nc(C)n1	i	-6	0	-1	-10	10	.	8
CC(=O)c1ccc(N2CCN(C(=O)c3ccc4[nH]c(C)c(C)c4c3)CC2)cc1	.	-1	.	.	-7	.	28	.
COc1ccc2c(c1)-c1nc(/N=C/c3ccc(O)cc3)sc1CC2	.	.	7	4	1	-4	-5	-3
Cc1nc2c3ccccc3n(CC(=O)c3ccc(F)cc3)c(=O)n2n1	i	-8	-2	-2	.	0	-14	-3
COCCCN1C(=O)c2ccc(C(=O)OCC(=O)N(C)c3ccccc3)cc2C1=O	i	-16	-2	0	-12	3	11	-7
Cc1ccc(C(C)C)c(OC/C(O)=C(\C#N)c2nc3ccccc3[nH]2)c1	i	.	-15	-26	28	2	15	1
CN(C)S(=O)(=O)N(CC(=O)N1CCN(Cc2ccccc2)CC1)c1ccccc1	i	-19	11	3	1	0	4	9
Cc1ccc(S(=O)(=O)c2c(N)n(CCC(C)C)c3nc4ccccc4nc23)cc1	i	-14	-41	-7	-10	-9	81*	6
O=C(O)C1OC(C(=O)O)C2C1C(F)(F)C2(F)F (stereo unspecified)	i	-8	5	4	-4	0	.	8
Cc1ccccc1Cn1cnc2ccccc2c1=O	i	.	-1	3	-4	12	-26	-12
COc1ccc(/C(O)=C2/C(=O)C(=O)N(CCCN3CCOCC3)C2c2ccc(C(C)C)cc2)cc1 (stereo unspecified)	i	-11	1	0	-12	0	-10	5
CCOc1ccc(NC(=O)CN2C(=O)CSC(C)C2=O)cc1 (stereo unspecified)	i	.	3	1	-16	0	-12	9
CCN(CCn1cccn1)C(=O)CCc1nnc(C2CCCCC2)o1	i	-18	7	1	-9	-2	13	-6
CC(Sc1nc2ccccc2[nH]1)C(=O)Nc1ccc2c(c1)OCCO2 (stereo unspecified)	i	-23	-1	1	-27	0	-17	-3
CCc1cccc(NC(=O)C2CCN(c3ncnc4sc(C)c(C)c34)CC2)c1	.	0	9	-3	37	.	.	.
C#CCOCCOCCOCCNc1nc(N2CCOCC2)nc(N2CCN(C(=O)[C@H](CCCCN)n3cc(CCCC)nn3)CC2)n1	.	23	0	3	.	.	6	.
Cc1cc(-c2ccccc2)nc(SCC(=O)c2cccc([N+](=O)[O-])c2)n1	.	-9	-4	-9	.	-5	.	4
COc1cccc(CNC[C@H]2O[C@@H](n3cnc(C(N)=O)n3)[C@H](O)[C@@H]2O)c1OCc1ccc(F)cc1Cl	.	-13	1	0	.	.	-4	.

(next part)
SMILES	Rce1 inh	UUG fidelity	MT1-MMP act inh	MT1-MMP act inh RFP	CSC inhib	eIF4H inh	HIV Env fusion	PABP FP inh	others
O=c1/c(=C/c2ccco2)sc2n1CN(c1ccccc1)CN=2	i	-10	1	3	-9	-8	.	-2
COc1ccc(/C=N/NC(=O)c2cccnc2)c2ccccc12	i	-18	2	0	-23	-3	0	2
CCOC(=O)C1CCN(c2c(NCc3ccc(N(C)C)cc3)c(=O)c2=O)CC1	i	-6	12	2	-2	9	3	7
C/C(=N\NC(=O)c1ccc(NS(=O)(=O)c2cccs2)cc1)c1ccccn1	i	.	.	.	64	4	.	5
CCN(C(=O)Cn1cc(C(C)=O)c2ccccc21)c1ccccc1	i	0	2	6	-16	-2	-13	3
O=C(CCCCCN1C(=O)[C@@H]2Cc3ccccc3CN2C1=O)Nc1ccccc1F	i	1	4	0	-1	7	19	11
COc1ccccc1N1CCN(C(=O)C2CCN(S(=O)(=O)N3CCOCC3)CC2)CC1	.	-13	6	8	.	5	.	9
O=C(Nc1cccc(S(=O)(=O)NC2=NCCCCC2)c1)c1cc(-c2ccccc2Cl)nc2ccccc12	i	.	-2	-6	-3	2	.	1
CC1(C)CC(=O)C(C=NCCN2CCN(CC(=O)Nc3ccc(F)cc3)CC2)=C(O)C1	i	.	4	4	-3	4	2	-5
Cc1cc(=O)c(C(=O)O)nn1-c1ccccc1	i	-1	0	1	-6	-5	-16	-12
Cc1c(Cl)cccc1Nc1nc(N)nc(CSc2nc3ccccc3s2)n1	i	.	0	3	28	-2	13	-3
Cc1ccc(NC(=O)c2[nH]cnc2C(=O)NN)cc1	i	-29	-4	-1	-1	7	-13	-10
Nc1nonc1-n1nnc(C(=O)N/N=C/c2cccnc2)c1CSC1=NCCS1	i	-17	2	0	12	-7	14	-2
COc1ccccc1CO/N=C/c1cccn1-c1nccc(N(C)C)c1C#N	i	-14	0	-2	-7	-4	.	-10
COc1ccc(-n2c(=S)[nH]c3cc(C(=O)Nc4ccc(C)c(F)c4)ccc3c2=O)c(OC)c1	i	-22	-7	-22	16	4	13	5

Four entries from above, ordered by SMILES length, largest number first.
SMILES	Rce1 inh	UUG fidelity	MT1-MMP act inh	MT1-MMP act inh RFP	CSC inhib	eIF4H inh	HIV Env fusion	PABP FP inh	others
COc1ccccc1N1CCN(C(=O)C2CCN(S(=O)(=O)N3CCOCC3)CC2)CC1	.	-13	6	8	.	5	.	9
CCOC(=O)C1CCN(c2c(NCc3ccc(N(C)C)cc3)c(=O)c2=O)CC1	i	-6	12	2	-2	9	3	7
CCN(C(=O)Cn1cc(C(C)=O)c2ccccc21)c1ccccc1	i	0	2	6	-16	-2	-13	3
COc1ccc(/C=N/NC(=O)c2cccnc2)c2ccccc12	i	-18	2	0	-23	-3	0	2
